RecA intein inh = Mtb RecA intein splicing inhibition; inhibition, %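 (about 9 µM by stock and volumes)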; 0.75% of 290,000 active; cell-free RecA intein splicing, fluorescence; in the data active = inhibition above about 30%; inconclusive = no clear call, values can overlap the other calls;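 note: 0% = vehicle wells and 100% = reference inhibitor control wells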
Target sequence (P9WHJ3 whole entry, looked up): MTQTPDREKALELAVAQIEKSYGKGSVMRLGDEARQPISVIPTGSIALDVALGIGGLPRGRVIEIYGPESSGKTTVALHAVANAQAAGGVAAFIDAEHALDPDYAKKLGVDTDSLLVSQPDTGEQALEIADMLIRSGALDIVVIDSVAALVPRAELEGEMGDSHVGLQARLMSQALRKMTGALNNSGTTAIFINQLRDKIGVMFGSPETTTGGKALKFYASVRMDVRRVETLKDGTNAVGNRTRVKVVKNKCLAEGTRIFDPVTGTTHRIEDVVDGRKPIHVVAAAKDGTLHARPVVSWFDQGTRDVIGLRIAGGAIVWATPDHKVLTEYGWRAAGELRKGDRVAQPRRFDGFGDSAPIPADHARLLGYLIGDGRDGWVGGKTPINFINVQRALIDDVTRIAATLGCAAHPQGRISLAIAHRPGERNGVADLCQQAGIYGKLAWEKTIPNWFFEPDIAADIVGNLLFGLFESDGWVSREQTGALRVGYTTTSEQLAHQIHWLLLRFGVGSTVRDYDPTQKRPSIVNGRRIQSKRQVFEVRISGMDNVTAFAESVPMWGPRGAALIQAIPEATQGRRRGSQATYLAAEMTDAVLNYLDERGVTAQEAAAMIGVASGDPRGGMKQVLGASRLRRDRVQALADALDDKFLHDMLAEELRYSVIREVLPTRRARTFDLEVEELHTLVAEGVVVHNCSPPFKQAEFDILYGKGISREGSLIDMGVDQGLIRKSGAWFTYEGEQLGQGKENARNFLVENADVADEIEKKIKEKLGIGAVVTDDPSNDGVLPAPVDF
Arbovirus anti = blocks arbovirus infection | AID 1251 | inhibition, % at 10 µM | 0.37% of 200,000 active | arbovirus infection cell-based antiviral screen;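 active = inhibition from about 30%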;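 note: bluetongue infection of BSR cells; cell survival read as ATP light after 72 h; 0% = infected wells without compound and 100% = uninfected wells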
Mtb bLac sens = beta-lactam sensitization of Mtb H37Rv. inhibition, % at 25 µM. M. tuberculosis H37Rv growth with meropenem, percent inhibition; hits of this screen are not shown here. 0.27% of 330,000 active;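 active = about 74% or more and at least 40 points above the plate without the antibiotic, then above 30% in a dose series; inconclusive = first-round hits that could not be retested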;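 note: growth measured after seven days incubation then overnight dye step; 0% = bacteria only wells and 100% = bacteria with antibiotic; twin plates without the antibiotic show which effects depend on it; some results filed as inactive read as strong as hits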
Mtb growth = M. tuberculosis H37Rv growth inhibitors, H37Rv strain (AID 1626). M. tuberculosis H37Rv growth inhibition; higher % means a stronger effect. 0.95% of 220,000 active. one-dose inhibition, % at 10 µM; IC50 in µM for titrated hits;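 active = confirmed in a dose series; inconclusive = inhibition above 80% but not taken into the dose series; inactive = below 80% or under 30% at every dose of the series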;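 note: bacteria incubated seven days before Alamar blue readout; 0% = bacteria only wells and 100% = bacteria with antibiotic wells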
YopH PTP inh = inhibitors of Yersinia enterocolitica YopH tyrosine phosphatase; fluorescence Ex485/Em525; inhibition, %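 (about 10 µM by stock and volumes)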; 0.16% of 140,000 active; AID 898;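 active = inhibition of 50% or more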;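 note: controls were vehicle for no effect and minimum signal wells for full effect; inactives centre near -20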
Starred values were filed as active, the others as inactive; ? = inconclusive; · = not tested or not shown.

SMILES	RecA intein inh	Arbovirus anti	Mtb bLac sens	Mtb growth	YopH PTP inh
CCOC(=O)C1CCC(CNCc2ccc(Cl)cc2)CC1 (stereo not given)	1.3	4	-6	5%	-12
N#Cc1c(SCC(=O)Nc2ccc(C(F)(F)F)cc2)sc2c(O)cc(=O)[nH]c12	5.1	·	-1	·	·
O=C(CC(=O)NC1CCCCC1)N/N=C/c1ccccc1[N+](=O)[O-]	0.5	·	-1	·	·
Cc1c(CN2CCN(C)C(CCO)C2)[nH]c2c(Cl)cccc12 (stereo not given)	-3.1	·	-2	·	·
Cc1cc2c(NS(=O)(=O)c3ccc(F)cc3)cccc2nn1	3.7	·	13	-5%	·
CC(C)(C)NC(=O)CN(C(=O)C(=O)Nc1ccc2c(c1)OCCO2)C(C)(C)C	3.0	0	-2	-3%	·
C=CCN(Cc1cn(C)nc1-c1cccc(Cl)c1)C1CCS(=O)(=O)C1 (stereo not given)	1.4	5	2	9%	·
O=C(COC(=O)CC(c1ccccc1)c1ccccc1)NCc1ccc(Cl)cc1	13	5	-9	5%	-39
C=CCSc1nnnn1-c1ccc(OC)cc1	-0.1	-11	4	-7%	-14
C=C(C)CN1CCN(c2ccc(N3C(=O)CCCC3=O)cc2[N+](=O)[O-])CC1	-0.5	1	-1	·	·
COCC(C)NC(=O)c1cc(OC)cc(OC)c1 (stereo not given)	-0.8	2	-1	-3%	·
C=CCn1c(Cc2cccs2)nnc1SCC(=O)c1ccc(F)cc1	2.4	-3	0	-15%	-29
N#Cc1c(N)n(C2CCCCC2)c2nc3ccccc3nc12	-88	0	26	10%	-29
Cc1ccnc(N2CCN(C(=O)CSc3nc4ccccc4nc3N3CCCCC3)CC2)c1	-13	2	97	?	-13
CC(C)(CO)NC(=O)c1ccc2c(c1)C(=O)c1ccccc1-2	-0.4	·	-2	·	·
CC(C)c1ccccc1NC(=S)NC1CCN(Cc2ccccc2)CC1	4.0	-9	1	-1%	-17
Cc1ccc(S(=O)(=O)N2CCCN(S(=O)(=O)C3CCS(=O)(=O)C3)CC2)cc1 (stereo not given)	0.7	-3	-4	2%	-18
COC(=O)C1CCN(C(=O)Nc2ccc(OC)cc2)CC1	1.9	6	1	-9%	-2
COc1ccc(CC(=O)Nc2ccc(N(C)C)c3ccccc23)cc1	-0.5	·	4	·	·
Cc1ccsc1C(=O)OCC(=O)Nc1cccc(S(=O)(=O)NC2=NCCCCC2)c1	-2.5	4	0	5%	·
Cc1ccc(S(=O)(=O)N/N=C\c2ccc3c(c2)OCO3)cc1C	1.2	·	-10	·	·
COc1cccc(/C=C/C(=O)OCC(=O)Nc2cccc(S(=O)(=O)N(C)C)c2)c1	10	1	-4	9%	·
O=C(CCCC(=O)OCC(F)(F)C(F)F)Nc1ccc(NC(=O)CCCC(=O)OCC(F)(F)C(F)F)cc1	-2.3	9	4	-4%	-19
Cc1ccccc1NCc1nnc2n1CCCCC2	-1.3	3	4	3%	·
N#C/C(=C\c1ccc(C(=O)O)cc1)c1ccccn1	0.2	10	-2	4%	·
CCN1CCN(c2ccc(S(=O)(=O)N3CCOCC3)cc2NC(=O)C(C)Oc2cccc(Cl)c2)CC1 (stereo not given)	-0.7	·	-5	·	·
COc1cc(CNCCc2ccc(S(N)(=O)=O)cc2)ccc1OCC(=O)N1CCCCC1	-2.3	6	-4	0%	-26
COc1cc(/C=C(\C#N)C(=O)Nc2cccc(C(=O)O)c2)ccc1OCc1ccc(F)cc1	4.1	·	8	·	·
Nc1nnnn1/N=C/c1cccs1	-0.9	-3	-11	-12%	-30
CCc1cc(C(=O)Nc2ccc(OC)nc2)sc1C	4.0	·	-9	·	·
CC(=O)N1N=C(c2ccccc2)CC1c1cn(C)c2ccccc12 (stereo not given)	3.5	-6	4	3%	-16
CN(C(=O)COC(=O)c1cc(Br)c(Br)s1)C1CCS(=O)(=O)C1 (stereo not given)	0.3	5	7	3%	-17
C=CCOc1ccc2oc(=O)cc(C)c2c1	0.9	1	·	1%	-17
CC1(C)C2CCC1(C)C(OCC[N+](C)(C)CC(=O)OC1CCCCC1)C2 (stereo not given)	4.1	2	100	?	-16
CC(C)(C)CN1CCN(Cc2cc3ccccc3[nH]2)CC1CCO (stereo not given)	1.2	·	-2	·	·
Nc1nonc1-n1nnc(C(=O)N/N=C/c2ccco2)c1-c1ccccc1	-1.3	·	-10	·	·
COc1ccc(C(=O)Cc2cc(OC)c(OC)cc2[N+](=O)[O-])c(OC)c1	-2.6	-5	-2	-5%	-33
CC(=O)NC(Cc1c[nH]c2ccccc12)C(=O)NCCc1ccccc1 (stereo not given)	6.3	·	1	·	·
CCc1ccc(OCC(=O)Nc2ccc3c(c2)OCCO3)cc1	1.9	·	81	·	·
CN(Cc1ccccn1)Cc1nc(Cc2ccccc2Cl)no1	6.7	-6	-1	-2%	·
CCOCc1c(C(=O)NC2CCCCCC2)oc2ccccc12	1.9	10	-4	14%	·
CC(NCC(=O)Nc1cc(Cl)cc(Cl)c1)c1ccccc1 (stereo not given)	4.7	·	99	·	·
CCOC(=O)N1CCC(NS(=O)(=O)c2cc3c(cc2C)NC(=O)CO3)CC1	-1.1	2	1	-9%	-30
COc1ccc(Cl)cc1NC(=O)COC(C)=O	·	6	20	4%	·
N#Cc1c(N2CCCCC2)nc(N)c2c(N)nc3c(c12)CC(c1ccccc1)O3 (stereo not given)	-2.8	-24	17	-3%	19
Cn1c(CO)cnc1SCc1ccc(Cl)cc1	-2.1	10	5	2%	-25
CC1CCC(NC(=O)CNC(=S)N2CC3CC(C2)c2cccc(=O)n2C3)CC1 (stereo not given)	1.3	·	3	·	·
O=C(NC(=S)NNC(=O)c1ccco1)c1ccccc1	-0.9	·	89	·	·

Structural class: the compounds so far containing fluorine (five)
SMILES	RecA intein inh	Arbovirus anti	Mtb bLac sens	Mtb growth	YopH PTP inh
N#Cc1c(SCC(=O)Nc2ccc(C(F)(F)F)cc2)sc2c(O)cc(=O)[nH]c12	5.1	·	-1	·	·
Cc1cc2c(NS(=O)(=O)c3ccc(F)cc3)cccc2nn1	3.7	·	13	-5%	·
C=CCn1c(Cc2cccs2)nnc1SCC(=O)c1ccc(F)cc1	2.4	-3	0	-15%	-29
O=C(CCCC(=O)OCC(F)(F)C(F)F)Nc1ccc(NC(=O)CCCC(=O)OCC(F)(F)C(F)F)cc1	-2.3	9	4	-4%	-19
COc1cc(/C=C(\C#N)C(=O)Nc2cccc(C(=O)O)c2)ccc1OCc1ccc(F)cc1	4.1	·	8	·	·

Compounds shown so far that contain an NH in an aromatic ring, in the order listed:
SMILES	RecA intein inh	Arbovirus anti	Mtb bLac sens	Mtb growth	YopH PTP inh
N#Cc1c(SCC(=O)Nc2ccc(C(F)(F)F)cc2)sc2c(O)cc(=O)[nH]c12	5.1	·	-1	·	·
Cc1c(CN2CCN(C)C(CCO)C2)[nH]c2c(Cl)cccc12 (stereo not given)	-3.1	·	-2	·	·
CC(C)(C)CN1CCN(Cc2cc3ccccc3[nH]2)CC1CCO (stereo not given)	1.2	·	-2	·	·
CC(=O)NC(Cc1c[nH]c2ccccc12)C(=O)NCCc1ccccc1 (stereo not given)	6.3	·	1	·	·

More records
SMILES	RecA intein inh	Arbovirus anti	Mtb bLac sens	Mtb growth	YopH PTP inh
CCn1c(-c2cccc(Br)c2)n[nH]c1=S	-4.1	1	14	10%	-32
Cc1ccc(C(=O)Nc2cc(-c3ccn[nH]3)c(C)n(N)c2=O)cc1	1.1	0	4	3%	·
O=C(Cc1csc(Nc2nc(=S)[nH]c3ccccc23)n1)N1CCN(c2cccc(C(F)(F)F)c2)CC1	-4.5	-16	5	51%	·
COc1ccccc1N1CCN(C(=O)c2ccc(N3CCCC3=O)cc2)CC1	·	5	-3	-5%	-24
O=C1CSC(=Nc2ccc(Cl)cc2)N1	1.0	·	6	·	·
Cc1ccsc1/C=N/NC(=O)c1nnn(-c2nonc2N)c1CSc1ccccc1	-6.5	·	3	·	·
Cc1ccc2c(c1)c1nnc(SCC(=O)NC3CC3)nc1n2C	0.2	·	4	·	·
CCC(C(=O)NCCCN1CCN(CCCNC(=O)C(CC)c2ccccc2)CC1)c1ccccc1 (stereo not given)	1.4	·	0	·	·
CSc1nc(N)cc(=O)[nH]1	-0.9	·	-3	-7%	·
O=C(NCCc1c[nH]c2ccccc12)/C(=C\c1ccco1)NC(=O)c1ccco1	1.6	-1	1	-2%	-14
CC(=O)c1cc2c(cc1NC(=O)Cn1nc(-c3ccc(C)cc3)ccc1=O)OCO2	4.3	·	-5	·	·
CCOC(=O)c1c(C)nc(C)c(C(=O)OCC)c1-c1cccnc1	0.6	·	6	-11%	·
COc1ccc(F)cc1S(=O)(=O)NC1CCCCCC1	-1.9	4	0	·	20
CCC(C)NC(=S)Nc1ccccc1OC (stereo not given)	-0.4	-1	3	3%	-12
COc1ccc(NC(=O)CN(Cc2ccccc2)S(C)(=O)=O)cc1	0.8	-3	-14	2%	-2
COc1cc(C)cc(C(=O)O)c1C1=C(O)c2cccc(O)c2C(=O)C1=O	·	·	6	-12%	·
CCOc1ccccc1NC(=O)c1ccc(OCC)c([N+](=O)[O-])c1	-3.0	-2	-1	9%	-28
N#CC1=C(N)Oc2c(ccc3ccccc23)C1c1ccsc1 (stereo not given)	12	-6	4	·	-52
CCCCOC(=O)C1=C(N)N2C(=O)C(C)SC2=C(C(=O)OCC)C1c1ccc(O)c(OC)c1 (stereo not given)	1.9	·	-2	7%	·
Cc1ccc([N+](=O)[O-])cc1N(CC(=O)NCC1CCCO1)S(C)(=O)=O (stereo not given)	3.8	4	6	3%	·
O=C(Nc1sc2c(c1C(=O)NC1CC1)CCCCCC2)c1ccco1	·	-30	?	5%	-12
NC(=NC(=O)c1ccccc1)C1=C(O)CCC1=O	-1.4	3	19	-9%	-17
CC1(C)Cc2ccccc2C(NN=C2CCCC2)=N1	-1.0	1	-1	-7%	·
CCOC(=O)c1ccc(NC(=O)c2c(Cl)cc(C)nc2C)cc1	1.5	·	-11	·	·
CC(C)C[C@@H]1NC(=O)[C@H](Cc2ccccc2)N(C)C(=O)[C@H](C)NC(=O)c2ccccc2NC(=O)[C@H](Cc2ccc(O)cc2)N(C)C1=O	4.2	·	-3	16%	·
COC(=O)C1=C(C(=O)OC)[C@@H]2N(Cc3ccccc3)c3ccccc3[C@@]23C[C@@H](C(=O)OC)N(C(C)=O)C3=N1	11	·	-8	-13%	·
CC(C(=O)N1CCc2ccccc21)N1CCN(Cc2ccccc2)CC1 (stereo not given)	-1.1	·	6	·	·
COc1ccccc1N(Cc1cc(=O)[nH]c2ccccc12)C(C)=O	-1.6	·	7	·	·
Cc1ccccc1NC(=O)CSc1nc2ccccc2c(=O)n1C	0.2	·	-1	·	·
O=C1CC(c2ccccc2)CC(O)=C1C=NCCN1CCN(C(=O)Cc2ccccc2)CC1 (stereo not given)	0.8	8	-4	5%	-25
CC1=CC(C)(C)N(C(=O)C(C)N2C(=O)c3ccccc3C2=O)c2c(C)cc(C)cc21 (stereo not given)	·	1	·	·	3
O=C(CN1CCC2(CC1)OCCO2)c1c[nH]c2ccccc12	1.7	20	-6	-3%	-6
CC1=C(C#N)C(NC(=O)c2ccco2)(C(F)(F)F)C(=O)N1 (stereo not given)	1.0	3	-3	-1%	-23
COCCCNc1nc2c(-c3cccc(C)c3)nnn2c2ccc(Cl)cc12	-27	·	4	·	·
CC1=CC(C)C(C(=O)O)C(C(=O)Nc2cccnc2)C1 (stereo not given)	-0.8	-2	2	-8%	·
CCOC(=O)c1ccccc1NC(=O)CN(c1ccccc1OC)S(C)(=O)=O	0.4	-8	-4	-9%	-55

Record cards, from the list above. Order of values: RecA intein inh, Arbovirus anti, Mtb bLac sens, Mtb growth, YopH PTP inh
Listed for COC(=O)C1=C(C(=O)OC)[C@@H]2N(Cc3ccccc3)c3ccccc3[C@@]23C[C@@H](C(=O)OC)N(C(C)=O)C3=N1 = 11, ·, -8, -13%, ·
Listed for CCOC(=O)c1ccccc1NC(=O)CN(c1ccccc1OC)S(C)(=O)=O = 0.4, -8, -4, -9%, -55
Listed for COCCCNc1nc2c(-c3cccc(C)c3)nnn2c2ccc(Cl)cc12 = -27, ·, 4, ·, ·
Listed for O=C1CC(c2ccccc2)CC(O)=C1C=NCCN1CCN(C(=O)Cc2ccccc2)CC1 (stereo not given) = 0.8, 8, -4, 5%, -25

New compounds follow
SMILES	RecA intein inh	Arbovirus anti	Mtb bLac sens	Mtb growth	YopH PTP inh
CCOc1ccc(S(=O)(=O)N(CC(=O)Nc2cc(C)on2)Cc2ccccc2Cl)cc1	2.4	8	7	13%	-8
Cc1ccc(Cn2c(SCC(=O)N(C)C3CCS(=O)(=O)C3)nc3ccccc3c2=O)cc1 (stereo not given)	-1.2	·	-8	·	·
NC(=O)c1ccccc1NC(=O)CC12CC3CC(CC(Br)(C3)C1)C2	-5.8	·	3	·	·
OCC1(CCc2ccccc2)CCN(Cc2c(F)ccc(F)c2F)CC1	-4.3	-18	7	6%	·

High-throughput results as filed in PubChem.

Not all compounds are listed (hit frequency here may not be typical).
